High-throughput results: PubChem BioAssay, ICCB-Longwood Screening Facility, Harvard Medical School
Sa growth 42C – inhibitors of Staphylococcus aureus growth at 42 °C | relative growth, % (test concentration not listed) | AID 720641 | actives 0.53% (n = 170,000) | S. aureus RN4220 growth, OD600, 20 h; active compounds read low;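 active = growth at 42 °C up to 50% and 20 or more points under that at 30 °C, or under 10% at both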;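 also: 300 nL library stock went into each well; scaled to the means of positive and negative controls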
GIV Gai3 FP – blocks GIV peptide binding to rat Galpha-i3; actives 0.42% (n = 210,000); Galpha-i3/FITC-GIV peptide fluorescence polarization, 90 min; active compounds read low; scaled: aluminum fluoride 0%, vehicle 100%; percent of control (FP), % (concentration not given with the values); P08753;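 active = replicate mean at 85% of control or lower, very high polarization wells dropped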;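 also: wells of about 15 µL received 100 nL stock; the first replicate is given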
Target sequence (P08753 whole entry, looked up): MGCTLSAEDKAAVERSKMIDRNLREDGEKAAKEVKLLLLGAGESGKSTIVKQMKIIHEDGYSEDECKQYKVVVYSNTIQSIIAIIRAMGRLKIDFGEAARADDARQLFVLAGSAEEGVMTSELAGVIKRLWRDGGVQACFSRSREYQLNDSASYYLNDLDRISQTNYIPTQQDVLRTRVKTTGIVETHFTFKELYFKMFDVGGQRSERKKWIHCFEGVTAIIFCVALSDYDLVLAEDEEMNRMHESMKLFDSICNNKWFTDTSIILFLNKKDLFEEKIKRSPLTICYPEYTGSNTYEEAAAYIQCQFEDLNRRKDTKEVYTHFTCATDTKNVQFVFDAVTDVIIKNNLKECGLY
HCMV UL50-53 inh – inhibitors of HCMV UL50-UL53 nuclear egress complex interaction; HTRF UL50-UL53 interaction, normalized percent inhibition; AID 1918969; actives 0.15% (n = 190,000); inhibition, % (no concentration beside the values);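 active = both replicates at 50% or more, plus weaker picks with an unusually low signal ratio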;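 also: stock transfer was 100 nL into about 20 µL; 0% = negative control wells and 100% = wells with untagged competitor protein; inactives centre near -12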
Sa growth 42C second temp – further read-out of Sa growth 42C, marked with its call; relative growth, %; measured here: growth at 30 °C;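 optical density after 20 h as mean of two plates; 100% = untreated growth and lower means inhibition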
* = called active by the depositor; . = no result given; & = joins results of further samples. Compounds as they come; any-hit rate near 0.83%.

mol | Sa growth 42C | Sa growth 42C second temp | GIV Gai3 FP | HCMV UL50-53 inh
COc1ccc(C(=O)n2nc(C)cc2Nc2ccccc2)cc1 | 107.5 | 94.6 | . | -32.7
Cn1c(=O)c2c(SCC(=O)N3CCc4ccccc43)nc(-c3ccc(Cl)cc3)nc2n(C)c1=O | 102.5 | 100.7 | 105.2 | .
COc1ccc2nnnn2n1 | 88.7 | 83.5 | 102.2 | -18.4
O=C(c1ccccc1F)N1c2nc(-c3ccco3)nn2C2(CCCCC2)[C@@H]2CCCC[C@@H]21 | 94.4 | 90.2 | 99.5 | -3.1
COc1cccc(NC(=O)c2ccccc2N(C)C(=O)CCC(=O)N2CCC(C)CC2)c1 | 99.6 | 95.5 | . | -0.1
COC(=O)c1c(-c2cccs2)csc1NC(=O)c1cc(OC)c(OC)c(OC)c1 | 102.3 | 82.8 | 104.8 | -32.6
CC1Cc2ccccc2N1C(=O)COC(=O)c1n[nH]c2ccccc12 (stereo not given) | 106.7 | 90.3 | . | -16.5
N#Cc1ccc(C=Nc2cc(Cl)c(N)cc2Cl)cc1 | 123.8 | 84.8 | . | -48.8
CCOc1cccc(-c2noc(CSc3ccc(-c4ccccc4F)nn3)n2)c1 | . | . | 104.9 | -13.6
COc1ccc(-n2c(C)cc(CNC(=O)NCC(C)C)c2C)cc1 | . | . | 138.5 | -20.0
O=C(Cn1cccc1)Nc1cccc(F)c1 | 109.1 | 92.4 | 97.3 | .
O=C(CC1=NS(=O)(=O)c2ccccc2N1)N1CCN(c2ccccc2)CC1 | 89.7 | 77.4 | 99.9&114.1 | -25.0&-11.8
CC(=O)N1C=CN(C(C)=O)C(c2cn(C)c3ccccc23)C1c1cn(C)c2ccccc12 (stereo not given) | 126.0 | 83.5 | 105.4 | 9.7
CCn1c2ccccc2c2nnc(SCC(=O)N3CCCc4ccccc43)nc21 | 98.0 | 89.0 | 102.7 | -9.0
Clc1cc(Cl)cc(-c2nnc(N3CCCC3)o2)c1 | 100.8 | 91.3 | 99.5 | -27.2

Overlap with the part before: two compounds; new compounds follow.
mol | Sa growth 42C | Sa growth 42C second temp | GIV Gai3 FP | HCMV UL50-53 inh
CCn1c2ccccc2c2nnc(SCC(=O)N3CCCc4ccccc43)nc21 | 98.0 | 89.0 | 102.7 | -9.0
Clc1cc(Cl)cc(-c2nnc(N3CCCC3)o2)c1 | 100.8 | 91.3 | 99.5 | -27.2
COc1cc(NC(=O)CCc2c(C)nc3nc(CN)nn3c2C)cc(OC)c1 | . | . | 105.6 | -1.1
CCNC(=S)N1CCn2cccc2C1c1cccs1 (stereo not given) | 97.0 | 79.1 | 104.3 | -24.9
CC(O)(CS(=O)(=O)c1ccc(Cl)cc1)CS(=O)(=O)c1ccc(Cl)cc1 | 100.2 | 72.0 | 103.8 | -2.0
Cc1c(N=C2SCC(=O)N2c2c(C)n(C)n(-c3ccccc3)c2=O)c(=O)n(-c2ccccc2)n1C | 84.3 | 85.5 | 104.2 | -28.5
Cc1cccc(-c2nn3c(=O)cc(CN4CCN(C(=O)c5ccccc5Br)CC4)nc3s2)c1 | 104.3 | 104.7 | 103.5 | .
CCOCCCN(Cc1ccco1)S(=O)(=O)c1cc2c(cc1C)NC(=O)CO2 | 94.8 | 80.6 | 101.2 | .
CCOC(=O)c1nc(Nc2cccc(Cl)c2)c2c(C)noc2n1 | . | . | 103.9 | 4.4
CNc1ccc(-c2nc(-c3ccncc3)no2)cc1[N+](=O)[O-] | 103.2 | 94.4 | 96.5 | -14.1
CCS(=O)(=O)N1CCc2cc(C(=O)COC(=O)c3ccc(-n4cnnn4)cc3)ccc21 | 84.2 | 91.6 | . | -15.2
CC(C)(C)C(=O)COC(=O)c1ccccc1C(=O)c1ccccc1 | 105.4 | 96.2 | . | -11.4
CCOC(=O)c1cc(C(O)(C(F)(F)F)C(F)(F)F)c(/N=C/N(C)C)o1 | 94.3 | 88.4 | . | -14.5
O=C(O)C1CC(=O)N(Cc2ccc(F)cc2)C1 (stereo not given) | 89.4 | 91.4 | 99.0 | .
CN1C(=O)C(S(=O)(=O)c2ccccc2)C2CC1(C)Oc1ccccc12 (stereo not given) | 102.2 | 86.6 | 99.8 | -0.3
Cc1c(C(=O)OC(C)C(=O)N(C)Cc2ccccc2)oc2ccccc12 (stereo not given) | 97.2 | 88.4 | . | -22.5
c1cc(N2CCOCC2)ccc1-c1noc(C2CCCC2)n1 | . | . | 101.8 | -18.0

Compound profiles, from the list above. Order of screens: Sa growth 42C, Sa growth 42C second temp, GIV Gai3 FP, HCMV UL50-53 inh
`COc1cc(NC(=O)CCc2c(C)nc3nc(CN)nn3c2C)cc(OC)c1` in the list: ., ., 105.6, -1.1
`O=C(O)C1CC(=O)N(Cc2ccc(F)cc2)C1` (stereo not given) in the list: 89.4, 91.4, 99.0, .
`c1cc(N2CCOCC2)ccc1-c1noc(C2CCCC2)n1` in the list: ., ., 101.8, -18.0
`CCS(=O)(=O)N1CCc2cc(C(=O)COC(=O)c3ccc(-n4cnnn4)cc3)ccc21` in the list: 84.2, 91.6, ., -15.2
`CCOC(=O)c1cc(C(O)(C(F)(F)F)C(F)(F)F)c(/N=C/N(C)C)o1` in the list: 94.3, 88.4, ., -14.5

Next part:
mol | Sa growth 42C | Sa growth 42C second temp | GIV Gai3 FP | HCMV UL50-53 inh
CCn1cc(C(=O)N2CCN(c3ccc(C(C)=O)cc3)CC2)c2cc(OC)c(OC)cc2c1=O | 89.0 | 101.6 | 102.9 | 9.4
CCOC(=O)c1oc2ccccc2c1CSc1nnc(Cc2cccs2)n1CCc1ccccc1 | 96.9 | 94.2 | . | -2.0
N#Cc1ccc(NC(=O)c2ccc(OC(F)(F)F)cc2)cc1 | 83.5 | 63.7 | 104.6 | -15.0
CCc1nn(CC(=O)NCCCN(CC)CC)c(=O)c2cc3occc3n12 | 93.2 | 98.7 | 102.8 | 4.5
O=C(CN1CCCCCC1)NCc1ccccc1 | 107.4 | 92.2 | 103.6 | -16.2
Cc1ccc(C2=NN(C(=O)CCC(=O)O)C(c3cn(-c4ccccc4)nc3-c3ccc(C)cc3)C2)cc1 (stereo not given) | 121.3 | 92.5 | 100.9&104.3 | -39.8
O=C(Cn1nc(C(F)(F)F)c2c1CCCC2)Nc1cccc(Cl)c1 | 76.8 | 99.2 | 96.2 | .
O=S(=O)(NC1CC1)c1ccc2c(c1)OCCO2 | 78.2 | 103.7 | 105.9 | .
Cc1ccc(NC(=O)Cn2nnnc2-c2ccccc2N)cc1 | 87.1 | 84.1 | 92.6 | -28.6
Nc1n(N)c2ccccc2[n+]1CC(=O)c1ccccc1 | 99.8 | 86.3 | . | -11.4
NC(=O)CC(=O)NC12CC3CC(CC(C3)C1)C2 | 102.1 | 103.7 | 101.7 | -2.5
Cc1sc(-c2noc(C(C)C)n2)cc1S(=O)(=O)N1CCC(C(=O)N2CCOCC2)CC1 | . | . | 106.3 | -7.7
C/C(=N\NC(=O)C1CC1)c1ccc(S(=O)(=O)N2CCCC2)cc1 | 86.2 | 88.8 | . | -31.8
CCSc1nnc(Cn2c(=O)sc3ccccc32)n1CCc1ccccc1 | 113.4 | 94.7 | 100.1 | 3.1
COc1cccc(C(=O)COC(=O)C(C)N2C(=O)C3C4C=CC(C4)C3C2=O)c1 (stereo not given) | 98.9 | 98.6 | 102.1 | 22.1
CN(C)C(=O)c1ccc2c(c1)N(CC(=O)NC1CCCc3ccccc31)C(=O)C1CCCCN21 (stereo not given) | . | . | 110.5 | -32.7
Cc1ccc(-n2nnc(C(=O)NCC3CCCO3)c2N)c(C)c1 (stereo not given) | 87.2 | 81.7 | 106.3 | -11.0
Cc1cc(C)c(C(=O)C/C(=N/O)C(F)(F)F)c(=O)[nH]1 | 109.2 | 94.6 | 111.6 | .
CCN(CC)c1ccc2cc(C(=O)NC(C)=O)c(=Nc3ccc(C(C)=O)cc3)oc2c1 | . | . | 112.0 | -10.8
NS(=O)(=O)c1ccc(C(=O)Nc2ccc(-c3cn4c(n3)SCC4)cc2)cc1 | 91.2 | 92.2 | 104.5 | -10.9
O=C1NC2(CCN(C(=O)Nc3ccccc3)CC2)Oc2ccccc21 | 102.4 | 102.9 | 111.7 | -1.6
Cc1ccc(NC(=O)CCC2=NS(=O)(=O)c3cc(Br)cnc3N2)cc1 | . | . | 100.8 | -3.9
c1nc(N2CCC2)c2ccsc2n1 | 101.6 | 79.7 | . | -12.2
N#C/C(=C(/O)Cn1nc(C(=O)O)c2ccccc2c1=O)c1nc2ccccc2s1 | 102.2 | 92.3 | . | -46.0
COc1ccc(-c2nc3ncccc3o2)cc1NC(=O)C(C)Oc1ccc(Cl)cc1Cl (stereo not given) | 76.2 | 68.8 | 102.2 | .
FC(F)(F)c1nnc2sc(-c3cnccn3)nn12 | 80.4 | 81.7 | 104.5 | -63.7
Nc1cc(=O)[nH]c(SCCSc2ccccc2)n1 | 107.0 | 93.6 | 99.1 | -32.7
CCN(CC)Cc1cccn1-c1nnc(N2CCCCCC2)s1 | 107.9 | 82.3 | 114.4 | -29.2
Cc1nc(N(C)C)cc(N2CCN(C(=O)Nc3ccccc3)CC2)n1 | . | . | 97.0 | -18.4
Cc1cc(Nc2ccc(F)cc2F)nc(-n2nc(C)cc2C)n1 | 62.9 | 70.0 | 105.7&99.2 | .
Cc1oc(-c2ccc(C(=O)NCc3ccccc3)cc2)nc1CN1CCc2ccccc21 | 86.9 | 91.0 | 102.5 | .
CCCN(CCC)C(=O)C[n+]1cccc(/C=N/O)c1 | 92.9 | 83.9 | 108.7 | -27.5
CN(Cc1ccccc1)C(=O)CSc1nc(-c2ccc3c(c2)OCO3)nc2cc(=O)[nH]n12 | . | . | 104.6 | -4.2
Fc1cccc(Cl)c1CNCc1c(F)cccc1Cl | 92.5 | 87.6 | 99.6 | -17.9
CCOC(=O)c1ccc2c(c1)N(CC(=O)Nc1ccc(C)cc1C)C(=O)c1ccccc1S2 | 100.0 | 102.6 | 107.9 | .
Cn1c(=O)c2c(ncn2CC(=O)NC2CCSC2=O)n(C)c1=O (stereo not given) | 92.0 | 88.6 | 95.4 | -23.8
CC(=O)Nc1ccc(S(=O)(=O)n2c(N)c(C#N)c3nc4ccccc4nc32)cc1 | 102.7 | 94.1 | . | -65.1
COCCCNC(=O)c1nn(-c2ccc(C)cc2)nc1CO | 87.9 | 90.8 | 93.8 | -22.7
CCCCCSc1ncnc2c1sc1nc(N3CCOCC3)c3c(c12)CCCC3 | 82.1 | 87.0 | 97.1 | -18.8
Cc1sc2c(c1C)c(=O)n(CCc1ccccc1)c(=O)n2Cc1cccc(F)c1 | 89.4 | 91.6 | 98.8 | -14.1
Nc1nc2cc(S(=O)(=O)NC3=NCCCCC3)ccc2s1 | 59.6 | 82.1 | . | -6.8
C=CCNC(=O)Cc1csc(-c2ccccc2)n1 | 98.2 | 86.2 | 106.1&101.2 | -26.7&-7.8
C[n+]1ccc(/C=C/c2ccccc2O)c2ccccc21 | 43.4 | 32.6 | 106.1 | .
O=C(O)CC1(CC(=O)Nc2cccc3cnccc23)CCCC1 | 106.1 | 87.6 | . | -33.1
O=C(COCc1cc(-c2cccs2)on1)N1CCN(c2cccc(Cl)c2)CC1 | 82.6 | 44.1 | 101.6 | .
CCc1ccc(-c2ccc(SCc3nc(-c4ccc5c(c4)OCO5)no3)nn2)cc1 | . | . | 113.1 | 3.5
CC(=O)N1N=C(N)SC12CCCC2 | 81.5 | 87.2 | 101.6 | .
O=C(NCc1cccnc1)c1cnn2c3c(cnc12)CCCCCC3 | . | . | 104.6 | -0.6
CCn1cc(C(=O)N2CCN(c3ccccc3OC)CC2)c(=O)c2cc(S(=O)(=O)N3CCCCC3)ccc21 | 95.3 | 96.9 | 96.6 | -2.4
CCOc1ccc(NC(=O)/C=N/O)cc1 | 81.7 | 81.3 | 99.6 | 29.0
COCCCNC(=O)C1CCN(Cc2nc(-c3ccc(OC)c(OC)c3)oc2C)CC1 | 101.2 | 96.2 | 106.2 | -30.4
Cc1cc(=O)oc2cc(OCC(=O)N3CCc4ccccc43)ccc12 | 89.5 | 101.2 | . | 24.9
O=C(c1ccc(F)c(Cl)c1)N1CCC(c2nc(-c3ccc(Cl)cc3)no2)CC1 | . | . | 97.7 | 5.4
CCOC(=O)c1sc(N2CCCCC2)c2c1CC(C)(C)CC2=O | 109.7 | 97.3 | 99.8 | 12.6
CCOC(=O)c1nc2ccccc2[nH]c1=O | . | . | 104.2 | -57.6
Cc1nc2ccccn2c1C(=O)NN=C1CCCC1 | 95.5 | 93.1 | . | -30.3
COc1ccc(OC)c(NC(=O)COC(=O)c2ccc(S(=O)(=O)N3CCOCC3)cc2)c1 | 112.9 | 96.0 | . | -32.2
O=C(CSc1nc2c([nH]c3ccccc32)c(=O)n1-c1ccc(F)cc1)N1CCCc2ccccc21 | 105.7 | 91.3 | 98.2 | .
